CtBP-E1A blk: qHTS Assay for Inhibitors of the CtBP/E1A Interaction; 340,000 compounds, 0.49% hits; activity change, % (test concentration not listed); AID 651724, 2012; CtBP / adenovirus E1A interaction (AlphaScreen); AlphaScreen GST-E1A/His-CtBP binding, 1536-well; stronger effect = lower value; control for the full effect not named in the record; in the data active means activity change below about -65%; inconclusive means about -30% to -65%; inactive means above about -30%; also: % is scaled to controls: 0 for no effect and ±100 for the full control effect
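GST-E1A and His-tagged CtBP (125 nM each as 5X stock) were preincubated with pin-transferred compound for 2 h at 37 °C in the dark, then glutathione donor and nickel acceptor beads were added for 1 h before AlphaScreen reading.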
PINK1 expr mod: A Quantitative High throughput Screen to Identify Chemical Modulators of PINK1 Expression | 410,000 compounds, 0.2% hits | PINK1 immunofluorescence, high-content cytometry, 24 h | Potency, µM (titrated, usually from 76.6 µM), for the others: at the highest dose activation (PINK1 increase), actives largely listed as activators; active = well fitted activation curve with a large enough effect; inconclusive = small, poorly fitted or top-dose-only effect; inactive = flat fitted curve, though single readings scatter; cell line not stated here;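 also: potency is read from the fitted curve at half-maximal effect; % of control where 0% means no effect; nearly all actives have a fitted effect of over 65% in size; a mitochondrial uncoupler was the plate control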
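Measures PINK1 amount and localization on or inside mitochondria by immunofluorescence. Stable cells get compounds at 5 concentrations for 24 hours before fixation and staining; CCCP controls included.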
D2 potentiator: Beta-Arrestin HTS for Positive Allosteric Modulators of the Human D2 Dopamine Receptor: Potentiators. D(2) dopamine receptor (Homo sapiens), P14416. DiscoveRx D2 beta-arrestin cells, luminescence, 90 min; 100% = 57 uM dopamine signal. potentiation, % (concentration not given with the values). 360,000 compounds, 0.23% hits; active = potentiation of 50% or more; inconclusive = 30% to 50%; inactive = 30% or less;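 also: tested on top of an EC20 dose of dopamine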
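D2 cells co-treated with compound plus 50 nM dopamine (EC20) for 90 min at 37 deg C to detect potentiation. Beta-arrestin recruitment was read as enzyme-fragment luminescence after 1 h at ambient temperature. Full response was set by 57 uM dopamine.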
D2 ag: Beta-Arrestin HTS for Positive Allosteric Modulators of the Human D2 Dopamine Receptor: Agonists; D(2) dopamine receptor (Homo sapiens), P14416; AID 624465, 2012; 360,000 compounds, 0.084% hits; DiscoveRx PathHunter D2 beta-arrestin, luminescence, 90 min; 100% = 57 uM dopamine signal; activation, % (test concentration not listed); in the data active = activation above about 40%; inconclusive = about 15% to 40%; inactive = below about 15%; also: compound concentration not given in the record; the text of the record calls up to 30% inactive
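Agonist mode: compounds alone added to overnight-plated D2 PathHunter cells for 90 min at 37 C, with 57 uM final dopamine (EC100) defining full response. Beta-arrestin recruitment detected by chemiluminescent reagent, read after 1 h at ambient temperature.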
TRPV1 PAM: HTS Assay for Compounds that Act as Potentiators of the Vanilloid Receptor 1. Transient receptor potential cation channel subfamily V member 1 (Homo sapiens), Q8NER1. TRPV1-expressing cells, Fluo-8 calcium influx, capsaicin EC20 potentiation; host cell line not named in the record; control for the full effect not named in the record. potentiation, % at 8.33 µM. 320,000 compounds, 0.02% hits; active means potentiation above 80%; inconclusive means 30% to 80%; inactive means below 30%; also: 0% is about no effect
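Cells expressing TRPV1 were dye-loaded with Fluo-8 and read kinetically: 10 s baseline, 3 min after compound (agonist portion), then 2 min after EC20 capsaicin (allosteric enhancer portion). Calcium-bound dye fluorescence at 480/520 nm.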
Sfp inh: qHTS Assay for Inhibitors of Bacillus subtilis Sfp phosphopantetheinyl transferase (PPTase) | 310,000 compounds, 3.5% hits | Biochemical Sfp PPTase activity, qHTS | Potency, µM, inactives show max response, negative = inhibition, actives largely listed as inhibitors | 4'-phosphopantetheinyl transferase ffp (Bacillus subtilis), Q9F4F7 | AID 1490, 2009; active = well fitted inhibition curve with a large enough effect; inconclusive = small, poorly fitted or top-dose-only effect, or another doubt; inactive = no such curve, though single readings can be large or run the other way;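 also: the enzyme is Sfp with the accession as filed and its product quenches rhodamine fluorescence; potency is read from the fitted curve at half-maximal effect; 0% = enzyme reaction without inhibitor and -100% = no enzyme wells; top concentration of the series not given in the record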
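Step 1, compound plus 15 nM Sfp-PPTase, 15 min, room temperature. Step 2, add rhodamine-CoA (5 uM) and BHQ-2-YbbR (12.5 uM). Step 3, read 525/598 nm fluorescence at 0 and 30 min.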
Six1-Eya2 inh: qHTS Assay for Inhibitors of the Six1/Eya2 Interaction | 360,000 compounds, 0.56% hits | Homeobox protein SIX1 (Homo sapiens) + Protein phosphatase EYA2 (Homo sapiens), … | activity change, % (concentration not given with the values) | AlphaScreen GST-Six1/His-Eya2 binding, biochemical; stronger effect = lower value; control for the full effect not named in the record; in the data active = activity change below about -65%; inconclusive = about -30% to -65%; inactive = above about -30%; also: % is scaled to controls: 0 for no effect and ±100 for the full control effect
Target sequence (O00167 whole entry, looked up): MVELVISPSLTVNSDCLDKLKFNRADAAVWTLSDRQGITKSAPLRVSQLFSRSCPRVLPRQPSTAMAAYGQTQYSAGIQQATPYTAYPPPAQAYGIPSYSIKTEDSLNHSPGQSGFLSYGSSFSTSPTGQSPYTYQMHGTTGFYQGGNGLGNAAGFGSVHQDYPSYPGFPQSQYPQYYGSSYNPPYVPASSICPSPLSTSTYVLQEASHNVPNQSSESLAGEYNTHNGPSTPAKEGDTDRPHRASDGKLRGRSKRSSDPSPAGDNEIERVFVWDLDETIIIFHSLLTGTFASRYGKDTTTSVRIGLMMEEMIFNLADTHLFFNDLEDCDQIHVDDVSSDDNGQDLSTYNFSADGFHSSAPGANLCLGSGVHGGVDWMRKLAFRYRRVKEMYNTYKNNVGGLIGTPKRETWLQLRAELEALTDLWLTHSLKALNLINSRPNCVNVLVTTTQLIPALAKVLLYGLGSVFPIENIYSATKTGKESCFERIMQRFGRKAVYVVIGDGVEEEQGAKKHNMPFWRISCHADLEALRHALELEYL
Target sequence (Q15475 whole entry, looked up): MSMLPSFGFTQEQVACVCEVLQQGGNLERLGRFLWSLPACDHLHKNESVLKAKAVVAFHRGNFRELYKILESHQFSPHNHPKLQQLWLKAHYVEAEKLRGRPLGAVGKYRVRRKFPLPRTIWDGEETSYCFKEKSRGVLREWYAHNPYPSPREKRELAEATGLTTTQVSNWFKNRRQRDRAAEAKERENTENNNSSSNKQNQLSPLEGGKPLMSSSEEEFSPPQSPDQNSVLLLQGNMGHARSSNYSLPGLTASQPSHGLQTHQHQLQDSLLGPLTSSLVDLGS
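AlphaScreen luminescence read after one hour at 37 °C in darkness. Pin-transferred compounds met GST-Six1 and His-Eya2 protein (5X stock 250 nM/500 nM) plus glutathione donor and Ni-chelate acceptor beads (5X, 50 ug/mL).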
* marks the source's active call; other numbers are inactive results; ? = inconclusive; nt = not tested or not shown; & = joins results of further samples; [ ] = dose if it differs, or a comment.

no. | compound | CtBP-E1A blk | PINK1 expr mod | D2 potentiator | D2 ag
1 | O=C1N2CCSC2=NC1(NS(=O)(=O)c1ccccc1)C(F)(F)F (centres undefined) | 4 | -0.6% | 0 | -3.5
2 | COc1ccc(-c2cc(N3C(=O)Nc4ccccc4N3O)n[nH]2)cc1 | -1 | 0.2% | 11 | -4.5
3 | Cc1ccc(NC(=O)CSc2nc3ccccc3c3nc4ccccc4n23)cc1 | -3 | 13%[38.3 µM] | -1 | -2.3
4 | CSc1ccc(/C=N/n2c(COc3ccccc3)n[nH]c2=S)cc1 | -14 | 2.4% | -22 | 3.2
5 | COc1ccc(/C=N/NC(=O)c2cccnc2)cc1CN1CCCc2ccccc21 | 0 | 7.9% | 6 | -1.5
6 | C[C@@H]1CN([C@H](C)CO)C(=O)CCCn2nncc2CO[C@H]1CN(C)Cc1cccc(O)c1 | 5 | -0.5% | -5 | -4.0
7 | O=C(c1cnn2c(C(F)F)cc(-c3ccccc3)nc12)N1CCOCC1 | -2 | nt | -13 | 1.6
8 | O=c1nc(-c2ccccc2)c2ccccc2[nH]1 | -22 | 3.1% | 1 | -0.9
9 | CCOC(=O)N1CCC(Nc2c(NCCCN3CCN(C4CCCCC4)CC3)c(=O)c2=O)CC1 | nt | -0.2% | -22 | -4.2
10 | COc1cc(/C=N/n2nnnc2N)ccc1OCc1c(C)no[n+]1[O-] | -5 | 1.2% | 7 | -1.6
11 | CCN(CC)S(=O)(=O)c1cc(F)ccc1OC | 5 | -0.3% | -12 | -4.0
12 | COc1cc(NC(=O)c2cccc(Cl)c2)c(OC)cc1NC(=O)CN1CCCCC1 | -22 | 0.2% | -7 | 2.5
13 | COc1cccc(CN2CCN(CCCc3ccccc3)C(CCO)C2)c1O (centres undefined) | 0 | 3.2% | -3 | -5.6
14 | CS(=O)(=O)Nc1ccccc1C(=O)OCC(=O)NCc1cccs1 | 0 | -1.3% | -18 | -2.6
15 | CC1CN(S(=O)(=O)c2ccc(Cl)c(S(=O)(=O)N3CC(C)OC(C)C3)c2)CC(C)O1 (centres undefined) | 1 | 4.6%[38.3 µM] | 1 | 1.0

no. | TRPV1 PAM | Sfp inh | Six1-Eya2 inh
1 | -3 | 6% | 2
2 | -5 | 0% | 0
3 | ? | -25% | 2
4 | -22 | -16% | -17
5 | -5 | -20% | -22
6 | nt | nt | 3
7 | 2 | 9% | 3
8 | -1 | 11% | ?
9 | 26 | 15% | 0
10 | -5 | 8% | -18
11 | -21 | -10% | -1
12 | -2 | -6% | -26
13 | -17 | 1% | -1
14 | nt | nt | 2
15 | -4 | 23% | 1

Continued; it opens with the 4 that closed the last part.
no. | compound | CtBP-E1A blk | PINK1 expr mod | D2 potentiator | D2 ag
12 | COc1cc(NC(=O)c2cccc(Cl)c2)c(OC)cc1NC(=O)CN1CCCCC1 | -22 | 0.2% | -7 | 2.5
13 | COc1cccc(CN2CCN(CCCc3ccccc3)C(CCO)C2)c1O (centres undefined) | 0 | 3.2% | -3 | -5.6
14 | CS(=O)(=O)Nc1ccccc1C(=O)OCC(=O)NCc1cccs1 | 0 | -1.3% | -18 | -2.6
15 | CC1CN(S(=O)(=O)c2ccc(Cl)c(S(=O)(=O)N3CC(C)OC(C)C3)c2)CC(C)O1 (centres undefined) | 1 | 4.6%[38.3 µM] | 1 | 1.0
16 | Cn1ccnc1SCc1cn2ccccc2n1 | 2 | 5.6% | -15 | -3.1
17 | Cc1ccccc1Nc1c(-c2ccccc2)nc2ncccn12 | 0 | 3.3% | 0 | 1.0
18 | COc1ccc(-c2cc3nc(NCCNC(C)=O)n(C)c(=O)c3s2)c(C)c1 | 1 | 0.6% | -1 | 6.1
19 | O=C(COC(=O)Cc1c(F)cccc1Cl)NC(=O)c1ccccc1 | 3 | 3.6% | -2 | 1.0
20 | C/C(=N\NC(=O)CC1N=C(Cc2ccccc2)NNC1=O)c1ccc(C)cc1 (centres undefined) | 7 | 0.2% | -10 | -2.3
21 | CN1CCC(N2CCN(C3CN(Cc4cn(Cc5cccc(C(F)(F)F)c5)nn4)S(=O)(=O)C3)CC2)CC1 (centres undefined) | -19 | -0.8% | nt | nt
22 | CC(=O)C1=C(C)NC(=O)CC1c1ccc(F)cc1 (centres undefined) | 3 | -1.6% | -8 | -5.9
23 | COC(=O)c1sccc1NC(=O)Nc1ccc(OC)cc1 | 2 | 1.8% | 8 | 3.7
24 | COc1cc(CCC(=O)NCc2ccc(F)cc2)cc(OC)c1OC | 9 | -1.8% | -7 | -1.6
25 | Cc1ccc(CN2CC34C=CC(O3)C(C(=O)NCc3ccco3)C4C2=O)cc1 (centres undefined) | -3 | -1.5% | -3 | -2.6
26 | COc1cccc(C(=O)N2CCN(C3CCCCC3)CC2)c1 | 0 | 1.7% | -7 | -0.5
27 | CCn1c(SCC(=O)NC(C)c2ccccc2)nc2ccccc21 (centres undefined) | 3 | 3.5%[38.3 µM] | -17 | -1.7
28 | CCOC(=O)C(Cc1ccccc1)NC(=O)CCc1c(C)nc2nc(C)nn2c1C (centres undefined) | 2 | 1.6%&-2.8% | -1 | -3.5
29 | Cc1cc2ccccc2nc1Br | 3 | 3.7% | 2 | -2.1
30 | COc1ccc(NC(=O)C2CCCN(S(C)(=O)=O)C2)cc1OC (centres undefined) | nt | 0.8% | -1 | 5.3

no. | TRPV1 PAM | Sfp inh | Six1-Eya2 inh
12 | -2 | -6% | -26
13 | -17 | 1% | -1
14 | nt | nt | 2
15 | -4 | 23% | 1
16 | 8 | 9% | 2
17 | 4 | 4% | 2
18 | nt | nt | -10
19 | 2 | 16% | 3
20 | 9 | -1% | 3
21 | nt | nt | 15
22 | -1 | 4% | -1
23 | -16 | -2% | 0
24 | 9 | 20% | 3
25 | 1 | 11% | -3
26 | -6 | -42% | 8
27 | 5 | 8% | 1
28 | 2 | 14% | 0
29 | 9 | 18% | -17
30 | -17 | 9% | 5

Continued.
no. | compound | CtBP-E1A blk | PINK1 expr mod | D2 potentiator | D2 ag
31 | COCCN1C[C@@H](CO)O[C@@H](n2cnc3c(N4CCOCC4)ncnc32)C1 | 1 | 3.0% | 1 | -1.4
32 | CCN(CC)c1ccc(/C=N/NC(=O)c2ccc3nc[nH]c3c2)c(O)c1 | -75* | 12% | -4 | 0.1
33 | Cn1c2ccccc2c(=O)c2cc(C#Cc3ccc(N)cc3)ccc21 | -2 | 2.9% | -1 | 0.3
34 | COc1ccc(NCC(=O)N/N=C/C=C/c2ccccc2[N+](=O)[O-])cc1 | -13 | -0.2% | -3 | -3.1
35 | COc1ccc(OCCSc2nc(N)cc(N)n2)cc1 | -21 | 0.1% | 12 | 7.7
36 | Cc1cc(C)cc(NC(=S)N2CC(C)OC(C)C2)c1 (centres undefined) | 11 | -0.7% | 8 | -1.5
37 | COc1cc(C(=O)N2CCCC(c3nc(-c4cccs4)no3)C2)cc(OC)c1OC (centres undefined) | 3 | -6.1%[38.3 µM] | 9 | -1.8
38 | COc1ccc(-c2ccc(-c3nc4ccc(C)cn4c3NC3CCCCC3)cc2OC)cc1 | 0 | ? | 1 | 4.1
39 | Brc1ccc(-c2csc(/N=C/N3CCCC3)n2)cc1 | -18 | 3.7% | -8 | -4.8
40 | O=C(COc1ncnc2ccccc12)Nc1cc([N+](=O)[O-])ccc1Cl | -19 | 4.8% | -28 | -2.1
41 | CC(=O)NN=C1CCC(c2ccccc2)CC1 (centres undefined) | 11 | 3.8% | -8 | -0.5
42 | CC1CCCC(=NNc2ccc3ccccc3n2)C1 (centres undefined) | -23 | -0.5% | -37 | -12
43 | COc1ccc(N2CCN(C(c3cccs3)C(C)NC(=O)C(=O)N3CCOCC3)CC2)cc1 (centres undefined) | -1 | 4.2% | 1 | -0.6
44 | COc1cc(/C=C2/C(=N)N3C(c4ccccc4)=CSC3=NC2=O)ccc1OCC(=O)O | 5 | 0.7% | -7 | -2.7
45 | Cc1ccccc1CN1CCN(C/C=C/c2ccccc2)CC1 | 1 | 11%[38.3 µM] | -24 | -0.7

no. | TRPV1 PAM | Sfp inh | Six1-Eya2 inh
31 | nt | nt | 0
32 | 1 | -14% | ?
33 | 3 | 5% | 0
34 | -4 | 0% | -26
35 | 1 | ? | -21
36 | 4 | 5% | 7
37 | 18 | 16% | -2
38 | 21 | nt | -15&-12
39 | -3 | -24% | -8
40 | 8 | -16% | 15
41 | -1 | -3% | 7
42 | nt | nt | -4
43 | -6 | 9% | -4
44 | 18 | 8% | -5
45 | ? | ? | -15

Remaining list, next part:
no. | compound | CtBP-E1A blk | PINK1 expr mod | D2 potentiator | D2 ag
46 | Cc1cccc(C)c1OCc1nc2ccccc2c(=O)n1/N=C/c1ccc(OCC(=O)O)cc1 | 19 | 0.1% | -9 | -2.4
47 | Cc1ccc(CN2CCN(Cc3ccccc3C(F)(F)F)CC2)cc1 | 6 | 4.4%[38.3 µM] | -28 | -1.1
48 | COc1ccc(C(=O)COc2ccccc2C(=O)Nc2ccccc2)cc1 | -2 | 4.5% | -2 | 1.8
49 | COc1cccc(CNC(=O)c2ccccc2-c2ccccc2)c1 | 10 | -1.0% | 13 | 6.8
50 | O=C(NC(=S)Nc1ccc(N2CCCCC2)cc1)c1ccco1 | ? | -1.8%[38.3 µM] | -12 | 0.4
51 | Nc1nc(N)c(N=Nc2ccc(S(N)(=O)=O)cc2)c(=O)[nH]1 | nt | 1.5% | -7 | -4.4

no. | TRPV1 PAM | Sfp inh | Six1-Eya2 inh
46 | 0 | -14% | 0
47 | 0 | ? | -3
48 | -4 | 0% | -11
49 | 7 | -8% | 6
50 | 1 | 0% | ?
51 | 30 | -10% | -9

Source: PubChem
